Screening data as filed in PubChem.
D2 PAM = positive allosteric modulators of human D2 dopamine receptor. potentiation, % (no concentration beside the values). P14416. DiscoveRx D2 beta-arrestin cells, luminescence, 90 min; 100% = 57 uM dopamine signal. hit rate 0.23% among 360,000; active = potentiation of 50% or more; inconclusive = 30% to 50%; inactive = 30% or less;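 note: compound concentration not given in the record; tested on top of an EC20 dose of dopamine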
Target sequence (P14416 whole entry, looked up): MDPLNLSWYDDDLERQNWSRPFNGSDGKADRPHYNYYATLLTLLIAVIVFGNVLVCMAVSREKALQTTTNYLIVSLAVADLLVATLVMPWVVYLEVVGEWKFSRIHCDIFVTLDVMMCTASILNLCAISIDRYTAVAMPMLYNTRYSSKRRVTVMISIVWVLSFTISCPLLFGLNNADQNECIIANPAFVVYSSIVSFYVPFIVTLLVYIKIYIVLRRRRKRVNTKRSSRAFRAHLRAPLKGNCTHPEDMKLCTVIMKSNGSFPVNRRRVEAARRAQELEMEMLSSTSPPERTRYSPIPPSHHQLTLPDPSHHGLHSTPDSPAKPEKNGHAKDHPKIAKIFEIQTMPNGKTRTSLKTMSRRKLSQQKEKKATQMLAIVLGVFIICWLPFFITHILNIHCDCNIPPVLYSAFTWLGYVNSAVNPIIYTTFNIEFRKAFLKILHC
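PathHunter beta-arrestin assay in DiscoveRx D2 cells. Compounds were added with an EC20 of dopamine (50 nM final) for 90 min at 37 deg C. Luminescence was read 1 h after detection reagent, with 57 uM dopamine as the EC100 control.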
D2 agonist = agonists of human D2 dopamine receptor (beta-arrestin); DiscoveRx PathHunter D2 beta-arrestin, luminescence, 90 min; 100% = 57 uM dopamine signal; activation, % (no concentration beside the values); hit rate 0.084% among 360,000; AID 624465; in the data active = activation above about 40%; inconclusive = about 15% to 40%; inactive = below about 15%; note: compound concentration not given in the record; the text of the record calls up to 30% inactive
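DiscoveRx PathHunter D2 beta-arrestin cells (2,100/well) attached overnight, then compound-stimulated 90 min at 37 C in HBSS/10 mM HEPES/0.1% Tween-20 buffer; beta-galactosidase complementation read by luminescence after 1 h at ambient temperature. Dopamine 57 uM final (EC100) as control.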
TRPML1 agonist = activates the human TRPML1 channel; TRPML1-expressing cells, Ca2+ dye fluorescence, FDSS; host cell line not named in the record; reference of the full effect not given here; activation, % (test concentration not listed); hit rate 0.12% among 410,000; in the data active = activation above about 50%; inconclusive = about 30% to 50%; inactive = below about 30%; note: 0% is about no effect; the text of the record puts the active cut at 80%
Target sequence (Q9GZU1 whole entry, looked up): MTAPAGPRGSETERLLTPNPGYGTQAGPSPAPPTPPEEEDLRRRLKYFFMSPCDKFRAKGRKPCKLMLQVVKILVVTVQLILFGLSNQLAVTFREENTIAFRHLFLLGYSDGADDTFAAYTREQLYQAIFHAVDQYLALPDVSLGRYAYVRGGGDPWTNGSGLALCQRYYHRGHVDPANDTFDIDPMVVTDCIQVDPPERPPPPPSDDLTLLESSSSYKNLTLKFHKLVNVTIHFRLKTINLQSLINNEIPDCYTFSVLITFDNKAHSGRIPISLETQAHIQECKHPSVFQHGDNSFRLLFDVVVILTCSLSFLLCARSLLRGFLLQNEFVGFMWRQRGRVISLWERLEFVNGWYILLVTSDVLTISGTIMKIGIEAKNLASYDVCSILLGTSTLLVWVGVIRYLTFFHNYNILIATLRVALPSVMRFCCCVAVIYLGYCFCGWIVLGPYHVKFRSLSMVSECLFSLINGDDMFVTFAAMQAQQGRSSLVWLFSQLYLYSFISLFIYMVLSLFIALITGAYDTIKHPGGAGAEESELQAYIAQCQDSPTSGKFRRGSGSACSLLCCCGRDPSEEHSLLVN
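Kinetic FDSS Ca2+ read in Tet-induced TRPML1-DL cells (ABD Ca8 dye plus quencher, 45-90 min RT loading): baseline, then compound, then 110 s agonist window; EC80 agonist 54-4 at 4uM final added afterwards for a 110 s antagonist window.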
Six1-Eya2 blk = blocks human Six1 binding to Eya2; Q15475+O00167; AlphaScreen GST-Six1/His-Eya2 binding, biochemical; active compounds read low; control for the full effect not named in the record; activity change, % (no concentration beside the values); hit rate 0.56% among 360,000; in the data active = activity change below about -65%; inconclusive = about -30% to -65%; inactive = above about -30%; note: % is set by controls: 0 for no effect and ±100 for the full control effect
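GST-Six1 + His-Eya2 (5X stock: 250/500 nM); Tris pH 8.0, 300 mM NaCl, 0.05% BSA, 0.02% Tween 20; GSH donor/Ni acceptor beads; 1 h 37 °C dark; AlphaScreen readout.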
CtBP-E1A inh = blocks the CtBP interaction with E1A; AlphaScreen GST-E1A/His-CtBP binding, 1536-well; active compounds read low; control for the full effect not named in the record; activity change, % (concentration not given with the values); hit rate 0.49% among 340,000; in the data active means activity change below about -65%; inconclusive means about -30% to -65%; inactive means above about -30%; note: % is set by controls: 0 for no effect and ±100 for the full control effect
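AlphaScreen with 125 nM GST-E1A and 125 nM His-CtBP (5X stocks) in Tris pH 8.0, 300 mM NaCl, BSA, Tween 20, TCEP. Compounds preincubated 2 h at 37 deg C, then glutathione donor/nickel acceptor beads added for 1 h at 37 deg C in dark.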
PINK1 expr mod = modulators of PINK1 expression. hit rate 0.2% among 410,000. PINK1 immunofluorescence, high-content cytometry, 24 h. Potency, µM (top dose mostly 76.6 µM), inactives show at the highest dose activation (PINK1 increase), hits mostly activators; active = well fitted activation curve with a large enough effect; inconclusive = small, poorly fitted or top-dose-only effect; inactive = flat fitted curve, though single readings scatter; cell line not stated here;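 note: potency is the fitted concentration of half-maximal effect; % of control where 0% means no effect; nearly all actives have a fitted effect of over 65% in size; a mitochondrial uncoupler was the plate control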
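Decision-based qHTS: stable cells, 24 h exposure to five compound concentrations, CCCP as control. Fixed cells stained for PINK1 plus nuclear, mitochondrial and cell markers, cytometer read.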
Numbers without * were called inactive; ? = inconclusive; . = no result given; & = joins results of further samples; [ ] = another dose, or the depositor's remark.

SMILES	D2 PAM	D2 agonist	TRPML1 agonist	Six1-Eya2 blk	CtBP-E1A inh	PINK1 expr mod
CCN(CC)c1nc(Oc2ccc(C(=O)OC)cc2)nc(N2CCOCC2)n1	-11	-3.5	0.7	-2	1	4.0%
Cc1ccc2c(c1)N(C(C)C(=O)NCc1ccccn1)C(=O)CO2 (stereo not given)	-7	-5.6	.	-12	-14	-1.2%
Cc1nn(Cc2ccccc2)c(=O)c2nn(-c3ccc(Cl)cc3)c(C)c12	-10	-1.0	4.2	9	7	-1.8%
CC(C)C[C@@H]1COc2cc(N3CCC[C@@H]3CO)ccc2S(=O)(=O)N1	.	.	-0.2	2	0	2.1%
O=C(c1ccccc1)N1CC(COc2ccccc2)OC(c2ccco2)O1 (stereo not given)	-6	-3.5	0.7	-4	-1	-0.9%
CCOc1ccc(C2CC(c3ccc(OC)cc3)n3ncnc3N2)cc1 (stereo not given)	-6	-7.5	3.0	5	-6	0.9%
CSCC[C@H](NS(=O)(=O)c1ccc(C)cc1)C(=O)N1CCC(C(=O)N[C@@H](C)C(=O)O)CC1	-29	-3.0	.	1	5	1.0%
COc1cc2c(=O)n(Cc3ccccc3)c(=O)n(CC(=O)NCc3ccco3)c2cc1OC	-7	0.6	0.8	1	1	0.5%
NS(=O)(=O)c1ccc(CCNC(=O)c2ccc(S(=O)(=O)N3CCCCC3)cc2)cc1	15	-1.0	-0.7	0	12	-0.4%
Cc1cc(C)n2nnnc2n1	-8	-0.6	0.5	8	3	0.0%
Cc1cc(C)cc(C(=O)n2cnnc2N)c1	12	-0.9	-1.1	5	-1	0.5%
COc1ccc(-c2cc(C(F)F)n3ncc(C(=O)N4CCCCC4)c3n2)cc1	-14	-0.7	1.8	17	12	-3.7%
CC(=O)Nc1ccc(Nc2nc3c(S(=O)(=O)c4ccc(C)c(C)c4)nnn3c3ccccc23)cc1	1	-6.0	-0.1	8	11	-0.2%
N[C@@H](Cc1cnc[nH]1)C(=O)Nc1ccc2ccccc2c1	-7	0.7	-0.5	-2	-12	1.3%
Cc1cc(C)cc(NC(=S)NCc2cccn2C)c1	-3	0.3	1.3	-16	-18	-2.0%[38.3 µM]
CCCc1nnc(SCC(=O)N2CCCCC2)n1CC1CCCO1 (stereo not given)	-3	-4.1	-0.8	1	8	-4.1%
CC(C)(C)P(=O)(CO)c1ccccc1 (stereo not given)	-5	-3.4	0.0	1	5	4.6%
COc1ccc(NC(=O)COC(=O)Cn2c(C)nc3ccccc32)cc1OC	13	0.7	-0.6	8	-5	3.7%
CC(=O)c1c(COC(=O)c2ccccc2Cl)nc2ccccc2[n+]1[O-]	3	3.1	1.4	-3	.	-0.1%
COc1cc(OC)c(OC)cc1CNC(=O)c1cc(=O)[nH]c2ccccc12	-2	0.1	-0.3	-5	7	-1.0%
Cc1ccc(SCc2cc(=O)[nH]c(/N=C(\N)Nc3ccccc3Sc3ccccc3)n2)cc1	-12	0.4	1.4	1	-7	2.4%
Cc1cc(-c2ccccc2)nc(N/N=C/c2ccco2)n1	-2	-4.1	-0.3	-1	3	0.3%[38.3 µM]
CCOC(=O)/C(C#N)=C/C1=C(N2CCCC2)CC(C)(CC)OC1 (stereo not given)	-5	-1.1	0.2	0	1	-2.9%
CC(Sc1nnc(-c2ccco2)o1)C(=O)Nc1ccc(OC(F)F)cc1 (stereo not given)	-8	-2.3	0.6	9	14	-1.1%
Cc1c(N=Cc2ccco2)c(=O)n(-c2ccccc2)n1C	-28	-0.1	0.1	-10	-7	1.0%
CN(CC(=O)Nc1ccc(N2CCOCC2)cc1)CC(=O)Nc1ccccc1[N+](=O)[O-]	-1	-2.1	-0.1	-11	15	-0.2%
O=C(Nc1cc(C2CC2)nn1-c1ccccc1)c1ccc(F)cc1	-7	0.9	-1.2	8	6	0.9%
Cc1ccccc1-c1nc(NCCN(C)C)nc2ccsc12	-13	-5.2	-0.8	20	26	-0.1%
O=C(COC(=O)c1ccccc1C(=O)N1CCN(c2ccccc2)CC1)Nc1ccccc1	-3	2.4	-0.6	-12	3	0.1%
COc1cc(Cl)c(C)cc1NC(=O)COC(=O)c1cc(SC)ccc1Cl	-8	-0.9	1.9	4	18	5.2%
CC(C)CCNC(=O)Cn1c(=O)oc2cc(S(=O)(=O)N3CC(C)CC(C)C3)ccc21 (stereo not given)	-5	-2.3	-1.1	-7	-2	8.3%
CCN(CC)CCN(Cc1cc2ccc(C)cc2[nH]c1=O)C(=S)Nc1ccccc1C(=O)OC	-24	-5.3	0.9	-13	-10	1.1%
Cc1noc(C)c1CN1C(=O)NC(Cc2ccccc2)(Cc2ccccc2)C1=O	-2	-3.5	2.1	-1	-3	7.4%
CC1=C(C)CC(C(=O)NNC(=O)c2csc3c2CCC(C(C)(C)C)C3)C(C(=O)O)C1 (stereo not given)	-11	-0.8	-0.8	6	6	1.9%
COc1ccc(C2/C(=C(/O)c3ccccc3)C(=O)C(=O)N2C)c(OC)c1 (stereo not given)	1	4.5	-0.1	10	4	0.3%
Cc1cc(Br)cc(C)c1NC(=S)NC(=O)CC(C)C	-7	-3.3	0.7	3	4	0.1%
COCc1nnc(NC(=O)C2CC(=O)N(C3CCCC3)C2)s1 (stereo not given)	-1	-2.9	-0.3	-4	8	0.4%
COc1ccc(C(=O)NCCS(=O)(=O)NCc2cccnc2)cc1	-3	-4.6	-0.1	-8	3	5.7%
CC1(C)Cc2c(sc3ncnc(NN)c23)CO1	-3	-3.0	0.1	-17	-29	1.0%
COc1ccccc1CNC(=O)COC(=O)c1c[nH]c2ccccc12	6	-0.5	-0.6	-5	10	2.6%

One compound at a time, from the list above:
O=C(Nc1cc(C2CC2)nn1-c1ccccc1)c1ccc(F)cc1 as listed: D2 PAM: -7; D2 agonist: 0.9; TRPML1 agonist: -1.2; Six1-Eya2 blk: 8; CtBP-E1A inh: 6; PINK1 expr mod: 0.9%
CCOc1ccc(C2CC(c3ccc(OC)cc3)n3ncnc3N2)cc1 (stereo not given) as listed: D2 PAM: -6; D2 agonist: -7.5; TRPML1 agonist: 3.0; Six1-Eya2 blk: 5; CtBP-E1A inh: -6; PINK1 expr mod: 0.9%

3 consecutive records from above, quoted:
SMILES	D2 PAM	D2 agonist	TRPML1 agonist	Six1-Eya2 blk	CtBP-E1A inh	PINK1 expr mod
Cc1ccc(SCc2cc(=O)[nH]c(/N=C(\N)Nc3ccccc3Sc3ccccc3)n2)cc1	-12	0.4	1.4	1	-7	2.4%
Cc1cc(-c2ccccc2)nc(N/N=C/c2ccco2)n1	-2	-4.1	-0.3	-1	3	0.3%[38.3 µM]
CCOC(=O)/C(C#N)=C/C1=C(N2CCCC2)CC(C)(CC)OC1 (stereo not given)	-5	-1.1	0.2	0	1	-2.9%

Other structures follow.
SMILES	D2 PAM	D2 agonist	TRPML1 agonist	Six1-Eya2 blk	CtBP-E1A inh	PINK1 expr mod
Cc1cccc(CN2CCN(C(C)C(=O)NC(C)c3ccccc3)CC2)c1 (stereo not given)	-25	-3.9	1.4	3	-5	0.5%
O=C(Nc1ccc2c(c1)C(=O)N(C1CCCCC1)C2=O)C1CCCO1 (stereo not given)	-1	-3.3	1.1	3	2	22%
COc1ccc(Cl)cc1NC(=O)CNc1ccccc1CN(C)C1CCCCC1	-7	-7.0	1.2	0	-4	?
CC(=O)c1ccc(Nc2c(C)n(C)n(-c3ccccc3)c2=O)cc1	4	2.5	1.1	1	0	-1.6%
COCCn1c(SCC(=O)Nc2cccc(C(=O)OC)c2)nc2ccccc2c1=O	-2	2.2	2.2	7	-1	3.3%
Cc1ccc(C(=O)OCC(=O)NC(C)c2ccccc2)s1 (stereo not given)	-5	0.9	-0.6	12	1	2.3%
CN(C)C(CNS(=O)(=O)c1ccc2ccccc2c1)c1ccccc1 (stereo not given)	-12	2.7	-0.1	-12	.	-1.0%
Cc1ccc(NS(=O)(=O)c2ccc(C)c(NC(=O)c3ccc(S(=O)(=O)N4CCCCCC4)cc3)c2)c(C)c1	-5	0.6	0.6	-7	-5	0.0%
CCCC1=Nc2cc(C(=O)N3CCC(C(=O)OCC)CC3)ccc2Sc2ccccc21	-8	-5.4	0.6&-0.3	-12	-10	15%&4.1%
Cc1ccc(C)c(S(=O)(=O)N2CCNCC2)c1	6	-0.8	0.4	-2	?	0.2%
CC(C)(C)C(=O)Cn1ncc(N2CCOCC2)c(Br)c1=O	0	6.6	-0.5	2	4	0.1%
Cc1ccc(NC(=O)COC(=O)c2oc3ccccc3c2C)cc1S(=O)(=O)N1CCOCC1	-8	-1.6	-0.6	-13	-6	3.2%
Cc1ccc(CNS(=O)(=O)c2ccc3c(c2)OCCO3)cc1	-23	-2.3	0.8	-1	7	-2.0%
CCOC(=O)c1sc(NC(=O)CSc2ccccn2)c(C#N)c1C	-7	0.4	-0.6	0	4	15%[38.3 µM]
CC(=O)C(Sc1ncnc2c1nnn2-c1ccc(F)cc1)C(=O)N(C)C (stereo not given)	-19	-4.0	-0.8	-13	4	-0.7%
C[C@@H]1CC[C@]2(O[C@@H](CCO)C[C@H](O)[C@H]2O)O1	-6	-4.8	0.2	4	3	-0.6%
O=C(CNC(=O)c1ccc(-c2ccccc2)cc1)Nc1cccc(CO)c1	-8	-0.2	0.5	-9	5	12%
COCC(=O)Nc1c(C(=O)Nc2cccc(OC)c2)oc2ccccc12	-23	-1.3	2.5	-8	-2	2.6%[38.3 µM]
CC1=NN(c2nc(-c3ccc(C#N)cc3)cs2)C(=O)C1	0	-3.1	-0.6	-2	1	2.5%
O=C(CCC(=O)Nc1ccc(F)cc1)N/N=C/c1ccccc1O	-20	-2.3	2.0	?	?	-1.0%
CCCCN1C(=O)C2NN=C(C(=O)OC)C2C1=O (stereo not given)	-9	2.1	-0.2	6	4	-0.1%
Cc1ccc(SCC(=O)NC(C)(C)C)cc1	-3	0.2	-0.5	2	-7	-0.2%
CCOC(=O)C1=C(C)NC(=O)NC1c1ccc(Cl)cc1Cl (stereo not given)	6	0.0	0.7	8	2	?
CCCn1c(SCC(=O)N2CCc3ccccc3C2)nc(O)cc1=O	-9	0.0	-0.4	-1	-4	-1.4%
O=C(CN1C(=O)NC(c2ccc(F)cc2)C1=O)Nc1ccc2c(c1)OCCO2 (stereo not given)	-20	-1.5	-0.4	8	.	4.7%
CCc1cc(C(=O)N(C)CC(=O)N(CC(C)C)c2c(N)n(CC(C)C)c(=O)[nH]c2=O)sc1C	-15	0.1	-0.3	-1	3	-1.4%
O=C(COc1ccc(S(=O)(=O)N2CCCC2)cc1)Nc1ccc(F)cc1	-2	1.8	-0.7	-6	4	-2.4%
O=C(COC(=O)C1CCCO1)Nc1nc(-c2ccc(F)cc2)cs1 (stereo not given)	-1	-1.6	0.7	-4	1	1.5%
CCOc1ccc(C2C(=O)N(C3CCCCC3)CC(=O)N2CC2CCCO2)cc1OC (stereo not given)	-8	-2.3	-0.2	1	-4	0.8%
COc1ccc(CNC(=O)COC(=O)c2cc(-c3ccc(Cl)s3)nc3ccccc23)cc1	-4	-3.7	3.1	24	6	14%
O=C(CN(CC1CCCO1)C(=O)CNS(=O)(=O)c1ccc(Cl)cc1)NCc1ccccc1 (stereo not given)	-10	-8.0	-1.5	12	0	0.5%

Rows were taken by chance (roughly 1.3% active in at least one column).
